FGF22 binding: shifts melting point of recombinant human FGF22; 340,000 compounds, 1.5% hits; recombinant FGF22 thermal shift, SYPRO orange fluorescence; percent of sucrose octasulfate shift, DMSO zero; Q9HCT0; calls only at 9.99 µM; AID 651658;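 active = melting point raised past a set limit in the mean and every replicate; three in four hits are not shown here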
Target sequence (Q9HCT0 whole entry, looked up): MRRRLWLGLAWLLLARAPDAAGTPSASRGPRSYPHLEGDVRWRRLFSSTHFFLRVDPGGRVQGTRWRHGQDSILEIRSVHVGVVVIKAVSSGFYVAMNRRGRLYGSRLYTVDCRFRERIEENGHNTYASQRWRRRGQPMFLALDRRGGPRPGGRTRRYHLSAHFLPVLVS
Ecoli rRNA inh: inhibits bacterial ribosomal RNA function over humanized ribosomes. AID 720706. GFP signal change (wild-type ribosome), % (test concentration not listed). 350,000 compounds, 1.6% hits. E. coli WT GFP vs humanized-ribosome RFP mutants, fluorescence, 24 h; active compounds read low; DMSO median 0, no signal -100;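 active = significant combined selectivity score with lowered wild-type GFP, culture density cut under 30%, mutant RFP and density less affected; inactive = any of these conditions unmet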; note: one replicate is shown; some compounds called inactive have numbers as strong as hits
AF4-AF9 inh: blocks AF4 peptide binding to human AF9. AlphaScreen, biotin-AF4 peptide binding to FLAG-AF9. inhibition, % at 10 µM. 350,000 compounds, 0.47% hits. P42568;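 active = every replicate reaching a set inhibition limit, whatever the replicate mean, cut at about 25% in these data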;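 note: 0% = plate neutral control median and 100% = total signal loss; the record names both 10 and 1 µM as test concentration; the first replicate is given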
Target sequence (P42568 whole entry, looked up): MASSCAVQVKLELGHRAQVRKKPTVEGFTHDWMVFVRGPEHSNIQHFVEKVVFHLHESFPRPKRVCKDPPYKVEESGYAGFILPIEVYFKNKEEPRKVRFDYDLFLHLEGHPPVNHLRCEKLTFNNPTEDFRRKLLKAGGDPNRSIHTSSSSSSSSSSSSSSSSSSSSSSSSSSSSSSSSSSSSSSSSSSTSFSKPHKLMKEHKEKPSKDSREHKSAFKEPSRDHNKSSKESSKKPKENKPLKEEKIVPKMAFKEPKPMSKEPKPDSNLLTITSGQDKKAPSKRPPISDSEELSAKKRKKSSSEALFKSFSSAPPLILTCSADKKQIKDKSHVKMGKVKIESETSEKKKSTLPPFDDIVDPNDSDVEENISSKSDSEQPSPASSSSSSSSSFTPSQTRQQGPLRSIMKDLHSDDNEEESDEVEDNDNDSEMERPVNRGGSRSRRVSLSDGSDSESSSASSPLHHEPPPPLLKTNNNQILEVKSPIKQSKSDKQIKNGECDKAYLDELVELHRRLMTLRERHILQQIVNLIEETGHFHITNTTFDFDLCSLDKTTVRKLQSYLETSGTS
Ecoli rRNA inh OD600: further read-out of Ecoli rRNA inh, marked with its call; OD600 change, %; measured here: OD600 growth;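 optical density of the mix in the first replicate; 0 = DMSO median and -100 = no signal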
Ecoli rRNA inh RFP: second read-out of Ecoli rRNA inh, no call of its own (marks repeat the call); RFP signal change, %; measured here: RFP humanized mutant strains;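 first replicate; 0 = DMSO median and -100 = no signal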
Starred values were filed as active, the others as inactive; i = inactive. An excerpt; the hit share may differ from the screen's.

The first 4 entries as a preview:
#	smiles	FGF22 binding	Ecoli rRNA inh	Ecoli rRNA inh OD600	Ecoli rRNA inh RFP	AF4-AF9 inh
1	C[C@H](CO)N1C[C@H](C)[C@@H](CN(C)C(=O)NC2CCCCC2)Oc2c(NC(=O)C3CCOCC3)cccc2C1=O	i	-2	3	-1.3	-5.7
2	CCCNC(=O)N(C)C[C@H]1Oc2ncc(-c3ccc(C(=O)N(C)C)cc3)cc2C(=O)N([C@H](C)CO)C[C@@H]1C	i	1	9	-6.1	-34
3	CC(=O)N1[C@@H](CO)[C@@H]2c3ccccc3N(S(=O)(=O)c3ccccc3)C[C@@H]21	i	3	4	-2.6	1.1
4	C[C@@H]1CN([C@@H](C)CO)C(=O)Cc2cc(NC(=O)Nc3ccc4c(c3)OCO4)ccc2O[C@@H]1CN(C)S(=O)(=O)c1ccccc1	i	1	-4	4.7	3.0

The list itself, from the start:
#	smiles	FGF22 binding	Ecoli rRNA inh	Ecoli rRNA inh OD600	Ecoli rRNA inh RFP	AF4-AF9 inh
1	C[C@H](CO)N1C[C@H](C)[C@@H](CN(C)C(=O)NC2CCCCC2)Oc2c(NC(=O)C3CCOCC3)cccc2C1=O	i	-2	3	-1.3	-5.7
2	CCCNC(=O)N(C)C[C@H]1Oc2ncc(-c3ccc(C(=O)N(C)C)cc3)cc2C(=O)N([C@H](C)CO)C[C@@H]1C	i	1	9	-6.1	-34
3	CC(=O)N1[C@@H](CO)[C@@H]2c3ccccc3N(S(=O)(=O)c3ccccc3)C[C@@H]21	i	3	4	-2.6	1.1
4	C[C@@H]1CN([C@@H](C)CO)C(=O)Cc2cc(NC(=O)Nc3ccc4c(c3)OCO4)ccc2O[C@@H]1CN(C)S(=O)(=O)c1ccccc1	i	1	-4	4.7	3.0
5	CCCC#Cc1ccc2c(c1)O[C@@H](CN(C)C(=O)c1ccccn1)[C@H](C)CN([C@@H](C)CO)S2(=O)=O	i	-3	-8	-3.4	2.9
6	C[C@H](CO)N1C[C@H](C)[C@H](CN(C)Cc2ccc(C(=O)Nc3ccccc3N)cc2)OCc2cn(nn2)CCCC1=O	i	-1	0	-3.2	2.6
7	NC(=O)c1ncn([C@@H]2O[C@H](CNCc3cnc(N4CCOCC4)nc3)[C@@H](O)[C@H]2O)n1	i	19	17	1.1	-1.5
8	COc1ccccc1C(C(=O)c1ccccc1)c1ccc2ccccc2c1 (centres undefined)	i	19	18	2.7	-1.9
9	CC(C)NC(=O)N(C)C[C@@H]1OCCCC[C@@H](C)Oc2ccc(NC(=O)NC3CCCCC3)cc2C(=O)N([C@@H](C)CO)C[C@H]1C	i	-1	-7	-0.4	-2.2
10	C[C@@H]1CCCCO[C@H](CN(C)Cc2ccc3c(c2)OCO3)[C@@H](C)CN([C@@H](C)CO)C(=O)c2cc(NS(C)(=O)=O)ccc2O1	i	0	8	-0.5	-3.9
11	CO[C@H](CN(C)Cc1cc(F)ccc1F)[C@@H](C)CN(C(=O)Nc1ccc(C(F)(F)F)cc1)[C@H](C)CO	i	-57	-68	-12	0.1
12	C[C@H]1CN([C@@H](C)CO)C(=O)c2cc(-c3cccc(F)c3)cnc2O[C@@H]1CN(C)Cc1cncnc1	i	-2	2	-0.2	-7.3
13	CCc1cccc(NC(=O)CSc2nc(C)cs2)c1	i	-3	-8	-2.8	-1.6
14	O=C(Nc1ccc2c(c1)[C@@H]1C[C@H](CC(=O)N3CCc4ccccc4C3)O[C@@H](CO)[C@@H]1O2)C1CCC1	i	-11	-18	-0.7	4.3
15	CN1CCN(C(=O)C[C@@H]2CC[C@H](NS(=O)(=O)c3cccc(F)c3)[C@@H](CO)O2)CC1	i	-1	-4	-2.8	-1.3

#	smiles	FGF22 binding	Ecoli rRNA inh	Ecoli rRNA inh OD600	Ecoli rRNA inh RFP	AF4-AF9 inh
16	COc1ccc(CN2[C@@H](CO)[C@@H]3c4ccccc4N(C(=O)Nc4ccc(F)cc4)C[C@@H]32)cc1	i	-6	-6	-1.0	-1.0
17	CN(C)C(=O)[C@@H]1[C@@H](CO)[C@@H]2Cn3c(ccc(C4=CCCCC4)c3=O)[C@@H]2N1CC1CC1	i	0	-4	-0.4	-2.2
18	Cc1noc(C)c1NC(=O)N(C)C[C@H]1OCCCC[C@H](C)Oc2ccc(NC(=O)c3ccncc3)cc2C(=O)N([C@@H](C)CO)C[C@@H]1C	i	3	-2	2.0	-2.0
19	C[C@H](CO)N1C[C@H](C)[C@@H](CN(C)Cc2ccncc2)Oc2ncc(-c3cccc(F)c3)cc2C1=O	i	1	-3	-1.1	-3.5
20	Clc1ccccc1-c1cccc2nccn12	i	7	7	-1.4	-5.0
21	C#CCN1C=CC(=O)[C@@H](OC(=O)Nc2ccc(OC)cc2)[C@H]1c1ccccc1Br	i	-5	-4	2.1	-1.4
22	CCCc1nc2ccccc2n1C(C(=O)NC(C)(C)C)C1CC1 (centres undefined)	i	6	12	-3.2	-0.4
23	COC(=O)C[C@H]1CC[C@@H]2[C@H](COC[C@H](O)CN2S(=O)(=O)c2ccccc2C)O1	i	2	1	1.4	-0.9
24	CO[C@@H]1CN(C)C(=O)c2cc(NC(=O)c3cnccn3)ccc2OC[C@H](C)NC[C@@H]1C	i	-1	-2	1.4	-3.1
25	COCC#Cc1ccc2c(c1)O[C@@H](CN(C)Cc1ccccc1)[C@H](C)CN([C@@H](C)CO)S2(=O)=O	i	-25	-57	3.5	2.6
26	Cc1cccc(COC[C@H](CC(C)C)N2CCN(C(=O)c3ccc(C(F)(F)F)cc3)CCC2=O)c1	i	5	0	-1.1	-0.4
27	COC(=O)C[C@@H]1CC[C@@H](NC(=O)Nc2ccc(C(F)(F)F)cc2)[C@H](CO)O1	i	-10	-10	4.1	-0.4
28	CC1(C(=O)Nc2ccc3c(c2)OCO3)Cc2c(-c3cccc(C(N)=O)c3)ccnc2O1 (centres undefined)	i	-1	-12	5.6	1.6
29	COc1ccc(NC(=O)N2CC[C@@H]3[C@@H](CO)N(C)c4ccc(-c5ccc(F)cc5)cc4[C@@H]32)cc1	i	-3	-10	0.7	6.9
30	CC(=O)N1[C@H](CNC(=O)C2CC2)[C@H](c2ccc(-c3cccc(F)c3)cc2)[C@@H]1CO	i	-4	-3	1.1	2.9

Another view of two compounds above:
#23 COC(=O)C[C@H]1CC[C@@H]2[C@H](COC[C@H](O)CN2S(=O)(=O)c2ccccc2C)O1
  FGF22 binding: i
  Ecoli rRNA inh: 2
  Ecoli rRNA inh OD600: 1
  Ecoli rRNA inh RFP: 1.4
  AF4-AF9 inh: -0.9
#21 C#CCN1C=CC(=O)[C@@H](OC(=O)Nc2ccc(OC)cc2)[C@H]1c1ccccc1Br
  FGF22 binding: i
  Ecoli rRNA inh: -5
  Ecoli rRNA inh OD600: -4
  Ecoli rRNA inh RFP: 2.1
  AF4-AF9 inh: -1.4

Carrying on:
#	smiles	FGF22 binding	Ecoli rRNA inh	Ecoli rRNA inh OD600	Ecoli rRNA inh RFP	AF4-AF9 inh
31	COc1ccc(-c2cn(CC[C@@H]3CC[C@@H](N)[C@H](CO)O3)nn2)cc1	i	-2	-5	1.3	-3.3
32	COc1ccc(CN(C)C[C@@H]2OCCCC[C@H](C)Oc3ccc(NC(=O)Nc4ccc5c(c4)OCO5)cc3C(=O)N([C@@H](C)CO)C[C@@H]2C)cc1	i	2	-18	5.6	22
33	Cc1noc(C)c1S(=O)(=O)Nc1ccc2c(c1)C(=O)N([C@@H](C)CO)C[C@@H](C)[C@@H](CN(C)Cc1ccc(C(F)(F)F)cc1)OCCCC[C@@H](C)O2	i	-5	-23	12	5.5
34	NC(Cc1ccc(F)cc1)c1csc(Nc2cc(NCc3ccco3)ncn2)n1 (centres undefined)	i	-2	5	8.4	7.5
35	C[C@@H]1CN([C@H](C)CO)C(=O)Cc2cc(NC(=O)Nc3cccc4ccccc34)ccc2O[C@@H]1CN(C)Cc1ccc(C(=O)O)cc1	i	-7	-6	3.5	2.7
36	CC(=O)N1[C@H](C(=O)NC2CCCCC2)[C@@H](CO)[C@@H]2Cn3c(cccc3=O)[C@@H]21	i	2	2	-0.7	-1.1
37	COC(=O)[C@@]1(Cc2ccc(F)cc2)[C@H]2c3cc(C(=O)N4CCCC4)n(Cc4ccc(S(C)(=O)=O)cc4)c3C[C@H]2CN1C(=O)c1ccccc1	i	25	7	1.0	1.8
38	CN1C(=O)c2cc(NC(=O)c3cnccn3)ccc2OC[C@@H]2O[C@H](CC(=O)N[C@H]3CCN(Cc4ccccc4)C3)CC[C@H]21	i	-2	11	-0.8	4.9
39	O=C(C[C@@H]1CC[C@H](NC(=O)Nc2ccc(C(F)(F)F)cc2)[C@@H](CO)O1)NCc1cccc(F)c1	i	-4	-11	-0.5	0.7
40	CCC(=O)N1[C@@H]2c3ccc(-c4ccccc4)c(=O)n3C[C@H]1[C@H](CO)[C@H]2C(=O)N(C)C	i	2	5	-0.5	0.4
41	CO[C@H]1CN(C)C(=O)c2ccc(NS(C)(=O)=O)cc2OC[C@@H](C)N(Cc2cccnc2)C[C@@H]1C	i	0	2	0.1	-0.6
42	CCCNC(=O)N1C[C@@H](O)COC[C@@H]2O[C@@H](CC(=O)N3CCN(C)CC3)CC[C@H]21	i	1	-3	-2.8	-1.7
43	COC(=O)[C@H](Cc1c[nH]c2ccccc12)NCc1cccc(B(O)O)c1	i	-24*	-11*	0.4*	1.7
44	CNC(=O)C[C@@H]1CC[C@@H]2[C@@H](COc3ccc(NC(=O)C4CCCCC4)cc3C(=O)N2C)O1	i	2	4	-0.7	-2.0
45	CCCCN1CC(COc2ccc(OC)cc2)OCCS1(=O)=O (centres undefined)	i	-15	-11	-4.1	-1.1

#	smiles	FGF22 binding	Ecoli rRNA inh	Ecoli rRNA inh OD600	Ecoli rRNA inh RFP	AF4-AF9 inh
46	C[C@H](CO)N1C[C@H](C)[C@@H](CN(C)Cc2cccc(C(=O)O)c2)Oc2ncc(/C=C/c3ccccc3)cc2C1=O	i	-8	12	-4.2	-0.6
47	Cc1noc(C)c1C(=O)N(C)C[C@H]1OCc2ccccc2-c2c(n(C)c3ccccc23)C(=O)N([C@H](C)CO)C[C@@H]1C	i	-1	1	-1.7	9.1
48	CCC(=O)N[C@H]1CC[C@@H](CCNS(=O)(=O)c2ccc(Cl)cc2)O[C@@H]1CO	i	0	4	-0.5	-0.4
49	CN(C)CC(=O)Nc1ccc2c(c1)[C@H]1C[C@H](CC(=O)NCc3ccccn3)O[C@H](CO)[C@H]1O2	i	2	2	-1.6	-2.1
50	C[C@@H]1CN([C@@H](C)CO)C(=O)c2cc(NC(=O)Cc3ccccc3)ccc2O[C@@H](C)CCCCO[C@@H]1CN(C)S(=O)(=O)c1ccc(Cl)cc1	i	1	0	-2.9	-1.2
51	CO[C@@H]1CC[C@H]2CCOc3ccc(C#N)cc3C(=O)N(C)C[C@H](C)C(=O)N(C)C[C@H]1O2	i	3	6	-0.2	0.2
52	C[C@@H]1CN([C@H](C)CO)C(=O)Cc2cc(NC(=O)C3CC3)ccc2O[C@@H]1CN(C)S(=O)(=O)c1cn(C)cn1	i	4	10	0.9	-1.1
53	CCS(=O)(=O)NCC[C@@H]1CC[C@H](NC(=O)Cc2ccccn2)[C@@H](CO)O1	i	2	4	5.0	-6.6
54	COc1ccc(S(=O)(=O)N(C)C[C@H]2Oc3c(NS(C)(=O)=O)cccc3C(=O)N([C@@H](C)CO)C[C@H]2C)cc1	i	4	-2	-3.5	-1.1
55	Cc1noc(C)c1NC(=O)Nc1ccc2c(c1)C(=O)N([C@H](C)CO)C[C@@H](C)[C@H](CN(C)Cc1ccc(Cl)c(Cl)c1)OCCCC[C@H](C)O2	i	1	-12	2.4	3.5
56	C[C@H]1CN([C@@H](C)CO)C(=O)c2cc(-c3ccc(C(=O)N(C)C)cc3)cnc2O[C@H]1CN(C)C(=O)CN(C)C	i	1	4	-0.6	-6.2
57	COc1ccc(-c2ccc([C@H]3[C@H](C#N)N(C(=O)C4CCCC4)[C@H]3CO)cc2)cc1	i	0	0	-1.7	-1.5
58	CO[C@@H]1CN(C)C(=O)c2ccc(NC(C)=O)cc2OC[C@H](C)N(CCc2ccccc2)C[C@H]1C	i	-1	-3	0.8	1.4
59	C[C@@H]1CN([C@@H](C)CO)C(=O)c2cc(C3=CCCC3)cnc2O[C@H]1CN(C)C(=O)C1CCOCC1	i	0	9	-2.9	-1.5
60	COc1ccc2c3c([nH]c2c1)[C@@H](CO)NCC31CN(C(=O)c2ccccc2)C1	i	2	-2	3.0	1.3
61	C[C@H](CO)N1C[C@H](C)[C@H](CN(C)Cc2ccncc2)Oc2ncc(C#Cc3ccccc3)cc2C1=O	i	1	-7	5.1	3.1
62	CO[C@H]1CN(C)C(=O)c2cc(NS(C)(=O)=O)ccc2OC[C@H](C)N(CC2CC2)C[C@H]1C	i	3	5	0.3	-0.6
63	C[C@@H]1CN([C@H](C)CO)C(=O)c2cc(NS(C)(=O)=O)ccc2O[C@@H]1CN(C)C(=O)Nc1ccc(F)cc1	i	8	0	0.2	-1.5
